PrP 5UTR inh: inhibition of PrP 5' UTR reporter expression; cell-based PrP 5' UTR mRNA reporter, plate reader; inhibition, % (test concentration not listed); 340,000 compounds, 0.35% hits; AID 488862;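 active = every replicate at 50% or more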;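 also: 0 = median of the neutral control wells; tested in H4 reporter cells; numbers are from one replicate; inactives centre near -14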
Mtb hypoxia inh: reduces hypoxia-regulated biosensor signal in M. tuberculosis; M. tuberculosis hypoxia-regulated fluorescent reporter, fluorescence; fluorescence inhibition, % (test concentration not listed); 300,000 compounds, 0.1% hits;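 active = 35 to 45% if threefold the growth effect, above 45% if 1.5-fold the growth effect; inactive = the rest, general growth blockers included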;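 also: wells of about 50 µL received 100 nL stock; 0% = vehicle wells and 100% = reference inhibitor wells; whole bacteria with a GFP reporter of the hypoxia response; strong numbers were not always called active; many hits fall short of the cut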
BJeLR lethal: kills HRASV12-expressing BJeLR cells; inhibition, % (concentration not given with the values); BJeLR (HRASV12) viability, CellTiter-Glo ATP luminescence, 48 h; reference of the scale not given here; 300,000 compounds, 0.17% hits;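 active = replicate mean above 50%; inconclusive = above 50% but judged a plate artefact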;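 also: 50 nL library stock added to about 25 µL; numbers are from one replicate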
Autofluor counter: compound fluorescence in toxin protease inhibitor counterscreen. fluorescence intensity (no concentration beside the values). compound autofluorescence counterscreen, microsphere flow cytometry; stronger effect = higher value. AID 624483. 360,000 compounds, 3.1% hits;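 active = at least 3 SD above the mean of all compounds, about 16000 in these data; inconclusive = too few beads counted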;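 also: 100 nL of 1 mM stock went into each well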
Sa ugtP lethal: kills S. aureus RN4220 lacking UgtP. S. aureus RN4220 ugtP deletion, OD600 growth, 16 h; some inactives read as strong as hits. growth inhibition, % (concentration not given with the values). 330,000 compounds, 0.54% hits. AID 1259309;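 active = z-score under -3 and OD600 up to 0.15 on both plates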;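 also: plate controls were untreated wells for no effect and antibiotic for full effect; wells of about 80 µL received 100 nL stock; the first replicate is given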
RN4220 kill: kills Staphylococcus aureus RN4220; S. aureus RN4220 growth, OD600, 16 h; inhibition, % (test concentration not listed); 330,000 compounds, 0.33% hits; AID 1259311;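 active = z-score of -3 or lower and OD600 up to 0.18 on both plates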;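 also: plate controls were untreated cells for no effect and reference antibiotic for full effect; stock transfer was 100 nL into about 80 µL; one replicate is shown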
Mtb hypoxia inh growth: further read-out of Mtb hypoxia inh, marked with its call; growth inhibition, %; measured here: M. tuberculosis growth (absorbance);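 0% = vehicle and 100% = reference antibiotic; read after six days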
Active calls of the source: *; ? = inconclusive; nt = not tested or not shown.

Value order – PrP 5UTR inh	Mtb hypoxia inh	Mtb hypoxia inh growth	BJeLR lethal	Autofluor counter	Sa ugtP lethal	RN4220 kill
C#CCOCCOCCOCCNc1nc(N2CCN(C(=O)Cn3cc(CCCCN)nn3)CC2)nc(N2CCN(C(=O)C(C(C)CC)n3cc(CCCCN)nn3)CC2)n1 (stereo not drawn)
 : nt	3.5	6.3	nt	nt	2.5	3.3
Cc1ccc(N2C(=O)NC(=O)/C(=C\c3ccoc3)C2=O)cc1
 : -14.7	nt	nt	4.1	2560	nt	nt
CCSc1nnc(Cc2cc(=O)[nH]c(=O)[nH]2)n1-c1cc(C)ccc1C
 : -25.2	7.7	3.9	0.1	4189	6.4	3.0
COc1ccc(OC)c(NC(=O)c2nnn(CC(=O)Nc3ccc4c(c3)OCO4)c2N)c1
 : -10.5	-7.2	-0.8	1.1	4125	-5.6	2.7
CC(C)S(=O)(=O)c1cnc(-c2ccccn2)nc1N
 : -23.8	-8.4	7.3	-20.2	5466	1.2	5.0
CC(C(=O)Nc1ccc(Cl)cc1)N1C(=O)NC2(CCCC2)C1=O (stereo not drawn)
 : -13.0	5.0	1.1	-1.6	5365	-8.8	3.0
CCCCc1c(O)nc(N2CCN(Cc3ccccc3)CC2)[nH]c1=O
 : -28.5	-4.7	3.6	-7.2	21940*	-8.8	5.7
CCN1C(=O)/C(=C\c2cn(CCC#N)nc2-c2ccc(F)cc2)SC1=S
 : -15.0	-14.5	-7.9	-3.7	3874	-3.2	7.0
C=CCOc1ccc(/C=C/C(=O)OCC(=O)NCCCc2ccccc2)cc1
 : 2.8	7.2	5.4	-1.3	5434	8.8	2.6
C=C(C)COc1ccc2c(C)c(CC(=O)N3C[C@H]4C[C@@H](C3)c3cccc(=O)n3C4)c(=O)oc2c1C
 : -10.9	nt	nt	-15.8	5163	10.3	4.9
N#Cc1cc(Oc2cccnc2)c(Oc2cccnc2)cc1C#N
 : -15.2	nt	nt	10.4	4618	2.6	-1.0
Cc1ccc(S(=O)(=O)Nc2ccc(N3CCN(C)CC3)nc2)cc1
 : -9.0	2.5	2.7	-5.9	2671	-1.0	-1.5
COc1ccc(-c2cccc(C(=O)Nc3cccc(C(=O)O)c3)c2)cc1
 : -62.3	18.5	5.8	-6.8	2212	5.3	4.7
Cc1ccc(C)c(OCC(=O)N/N=C\c2cccn2C)c1
 : -4.2	nt	nt	-12.3	2435	nt	nt
Cc1cc(C)n(-c2nc(-c3ccccc3)cs2)n1
 : -39.5	nt	nt	-13.5	4055	75.6	-0.4
Cc1ccc(N(Cc2cc3ccccc3[nH]c2=O)C(=O)c2cccs2)cc1
 : -12.4	5.4	0.6	2.3	2158	-4.6	11.4
CN(C)/C=C(\C#N)S(=O)(=O)c1ccc(Cl)cc1
 : -46.5	17.0	-2.0	9.5	6327	7.7	2.5
COc1cc(/C=N/NC(=O)CCOc2ccccc2C)cc(Br)c1O
 : -18.3	nt	nt	-1.9	4880	nt	nt
CS(=O)(=O)N1CCC(C(=O)Nc2ccccc2)CC1
 : 9.1	-2.6	1.8	0.1	9599	2.7	2.0
Cc1cc(Cl)cc2sc(NC(=O)C3CC3)nc12
 : -31.6	-1.9	0.8	-7.7	4389	-1.7	7.1

A section of the results above, as a working copy:
Value order – PrP 5UTR inh	Mtb hypoxia inh	Mtb hypoxia inh growth	BJeLR lethal	Autofluor counter	Sa ugtP lethal	RN4220 kill
CN(C)/C=C(\C#N)S(=O)(=O)c1ccc(Cl)cc1
 : -46.5	17.0	-2.0	9.5	6327	7.7	2.5
COc1cc(/C=N/NC(=O)CCOc2ccccc2C)cc(Br)c1O
 : -18.3	nt	nt	-1.9	4880	nt	nt
CS(=O)(=O)N1CCC(C(=O)Nc2ccccc2)CC1
 : 9.1	-2.6	1.8	0.1	9599	2.7	2.0

Further results follow:
Value order – PrP 5UTR inh	Mtb hypoxia inh	Mtb hypoxia inh growth	BJeLR lethal	Autofluor counter	Sa ugtP lethal	RN4220 kill
COC(=O)c1cc(=O)n2c(-c3ccc(OC)cc3)csc2n1
 : -18.6	12.2	11.3	2.4	3321	-3.1	-5.0
COc1ccc(S(=O)(=O)NCc2ccc3c(c2)OCO3)cc1OC
 : -35.1	11.7	-0.8	3.1	3125	0.9	2.3
CCOc1ncccc1C(=O)OCC(=O)NCCc1ccc(OC)cc1
 : -7.0	11.0	9.4	-1.9	3179	-1.2	-5.5
CC(C)NC(=O)c1cccc(C(F)(F)F)c1
 : -52.6	6.3	7.3	10.1	9902	9.2	2.4
Cc1ccc(C(C)(C)C)c(OCCCCN2CCCC2)c1
 : -12.5	10.6	2.0	14.9	9855	3.5	0.9
Cc1ccccc1C(=O)N1CCC(C(=O)OCc2nc(N)nc(Nc3ccccc3)n2)CC1
 : -24.6	4.8	-2.2	nt	7858	0.5	0.0
O=C(NCCCN1CCOCC1)c1c(O)c2ccccc2[nH]c1=O
 : -33.0	4.1	7.2	-1.2	9307	4.4	-0.1
O=C(CN1C(=O)NC2(CCCCCC2)C1=O)NCCc1ccc(F)cc1
 : -27.4	12.5	-2.3	nt	8867	2.7	2.3
N#C/C(=C\c1cccc2ccccc12)c1nn(-c2ccccc2)c(N)c1C#N
 : nt	10.0	15.9	-5.4	nt	14.7	6.3
O=c1[nH]c(/C=C\c2cccc(F)c2)nc(O)c1[N+](=O)[O-]
 : -0.1	12.4	9.9	-2.7	3754	9.1	-0.9
COc1cc(OC)cc(C(=O)NC(=S)N2CCCCC2c2cccnc2)c1 (stereo not drawn)
 : -27.3	nt	nt	-4.4	5037	-24.0	0.1
CC(=O)Nc1ccc(NC(=O)Cn2cnc3c(cnn3C(C)(C)C)c2=O)cc1
 : nt	10.9	10.9	-5.7	nt	2.9	7.6
Clc1ccc(-c2cc(C3CCNCC3)[nH]n2)c(Cl)c1
 : -15.1	25.7	-0.3	0.0	4852	2.6	-0.9
Cc1oc2c(c1C(=O)NCCO)CCCC2
 : -18.4	-2.5	7.7	-7.0	3084	2.9	1.9
O=C(Cc1ccccc1)NNC1CC(=O)N(c2ccccc2)C1=O (stereo not drawn)
 : -9.8	3.3	5.6	-6.0	8136	12.2	5.7
Cc1ccc(NC(=O)CNc2cccc(S(=O)(=O)N3CCCCC3)c2)cc1F
 : -17.2	8.3	-5.4	-11.0	?	-6.5	3.3
Cc1oc(-c2ccccc2F)nc1CSCC(=O)NC1CCC(C)CC1 (stereo not drawn)
 : -48.5	16.0	0.1	2.3	5903	-3.5	3.8
COc1ccc(N(C)S(=O)(=O)c2cccc(C(=O)Nc3cc(OC)ccc3OC)c2)cc1
 : -26.6	-6.3	4.6	6.0	2293	-1.5	-0.6
Cc1cc(C)c(C(=O)O)c(Cl)n1
 : -12.6	-8.4	-7.7	4.3	3357	4.1	0.3
COc1cccc(OCc2cc(/C=N/n3cncn3)ccc2OC)c1
 : 0.9	nt	nt	-5.9	4335	nt	nt
COc1cc(NS(C)(=O)=O)cc(OC)c1OC
 : -12.5	5.3	3.1	-1.3	3661	-1.8	4.8
CCN1CCN(CCCNC(=O)CN2C(=O)c3cccnc3Oc3ccc(Cl)cc32)CC1
 : -1.1	5.2	3.8	-0.9	3991	16.9	7.5
C=CCN1C(=O)CSc2ccc(C(=O)NC(C)c3ccccc3)cc21 (stereo not drawn)
 : -3.1	6.6	2.9	-6.4	5719	9.8	3.7
COC(=O)c1ccc(NC(=O)C(C)N2C(=O)c3ccccc3C2=O)cc1 (stereo not drawn)
 : 2.5	-6.8	2.2	1.6	3995	0.2	0.9
C/C(=N\NC(=O)CCc1c(C)n[nH]c1C)c1ccc([N+](=O)[O-])cc1
 : -25.4	nt	nt	1.7	3498	nt	nt
CCC(C)[C@H](NC(=O)C1CC(=O)N(c2ccc(OC)cc2)C1)C(=O)N1CCCCC1 (stereo partly drawn)
 : -5.3	6.7	9.4	1.4	5358	6.8	2.8
O=C(NCC1CCCO1)C1CCCN(S(=O)(=O)c2ccc(F)cc2)C1 (stereo not drawn)
 : -23.3	2.3	1.4	3.0	4842	-6.0	-2.4
C=CCN(c1ccccc1OC)S(=O)(=O)c1ccc(Cl)c(C(=O)Nc2ccc(N3CCOCC3)cc2)c1
 : -6.1	-3.0	10.7	0.9	4250	4.7	7.0
O=C(Oc1ccc(=O)n(-c2ccccc2)n1)c1cccc(Cl)c1
 : -25.2	nt	nt	-3.3	2106	-11.3	4.2
O=C(NCc1ccc(F)cc1)C1CCCN1C(=O)Nc1ccc(Cl)cc1 (stereo not drawn)
 : -21.0	13.3	2.6	1.6	4116	1.0	-0.7
Cc1cccc2cc(CN(CC3CCCO3)S(=O)(=O)c3ccccc3)c(=O)[nH]c12 (stereo not drawn)
 : -22.4	7.1	4.3	-4.6	6938	-0.8	3.3
COc1cccc(NCc2nnc(SCC(=O)NC3CCS(=O)(=O)C3)n2C2CCCCC2)c1 (stereo not drawn)
 : -22.4	13.1	1.5	-8.8	?	5.2	2.2
Cc1cc(NC(=O)CSc2nnc(NCc3ccccc3)s2)no1
 : -12.0	-4.2	-8.8	15.4	3942	10.6	4.7
CCN(CC)C(=O)CN(C#N)c1nc(C)cc(C)n1
 : -8.7	16.2	5.3	0.4	2058	4.5	3.8
NS(=O)(=O)c1ccc(CCNC(=O)c2ccc3ccccc3n2)cc1
 : -50.7	16.1	3.0	0.0	4536	-7.2	6.6
CCOc1ccc2nc(-c3ccccc3)nc(SCC(=O)Nc3ncc(C)s3)c2c1
 : -19.2	0.2	1.5	4.8	9463	-5.9	2.3
O=C(C[n+]1cccc(/C=N/O)c1)N(Cc1ccccc1)Cc1ccccc1
 : -18.1	nt	nt	2.0	6989	nt	nt
NC1=C([N+](=O)[O-])C(c2ccc3c(c2)OCO3)c2c(c3ccccc3oc2=O)O1 (stereo not drawn)
 : nt	1.1	2.9	17.1	nt	-4.3	-3.6
CCc1ccc2c(c1)cc(C)c1nnc(SCC(=O)Nc3cc(OC)c(OC)cc3C(=O)O)n12
 : -16.8	-0.2	8.0	4.8	4385	2.9	9.3
Cc1cccc(NC(=O)CN2C(=O)S/C(=C\c3cc(C)n(C)c3C)C2=O)c1
 : -12.9	4.2	-0.7	-0.4	2268	10.7	-0.3
N#Cc1ccc(CSc2nnc(NC(=O)C3CCCO3)s2)cc1 (stereo not drawn)
 : -8.5	-1.2	5.3	-6.1	9130	-5.7	-0.1
Cc1ccc(NC(=O)COC(=O)COc2cccc3c2OC(C)(C)C3)c(C)c1
 : -21.3	-3.9	-3.0	-4.1	?	9.8	3.0
COc1cc(C(=O)Oc2ccccc2OC(=O)c2cc(OC)c(OC)c(OC)c2)cc(OC)c1OC
 : 4.4	4.3	4.3	nt	4227	3.8	2.4
Cc1ccc(NC(=O)c2oc3ccc(S(=O)(=O)N4CCC5(CC4)OCCO5)cc3c2C)cc1C
 : -24.9	8.0	-1.3	-0.7	2070	11.3	0.3
CCNc1nc(NCC)n2c(SCC(=O)NCC3CCCCC3)nnc2n1
 : -11.3	7.0	2.7	-7.2	2279	4.9	5.3
C=CCNc1nc2ccccc2nc1NS(=O)(=O)c1cccs1
 : -18.6	1.3	4.9	-0.4	2580	-12.0	13.2
